Rango dissoc inh = inhibition of RanGTP-driven Rango-importin beta dissociation | 340,000 tested, 0.071% active | AID 540253 | O95149+P62826 | Potency, µM (top dose mostly 46.1 µM), inactives show at the top dose activity change, negative = inhibition | Biochemical FRET Rango-importin beta, RanGTP-induced dissociation; active means falling FRET ratio curve, often poorly fitted, with flat reads before Ran was added; inconclusive means other falling curves, or compound fluorescence or quenching; inactive means flat or rising ratio curve;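 further: potency means the concentration at half of the fitted maximal effect; % of control where 0% means no effect; nearly all actives have a fitted effect of over 45% in size; -100% = wells without RanGTP and RCC1; the record marks most hits as doubtful in a second field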
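Recombinant Rango FRET biosensor (EYFP–snurportin 1 IBB–cerulean CFP10) at 0.1 uM premixed with 0.25 uM importin beta in PBS, 1 mM DTT, 0.02% Tween-20, 0.1% BSA. Compound added 5 min; RanGTP-RCC1 (0.6 uM Ran, 2 mM GTP, 0.2 uM RCC1) then triggers release, read at 45 min.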
Rango-impB inh = prevents formation of the Rango-importin beta complex. 340,000 tested, 0.031% active. Rango CFP/YFP FRET sensor + importin beta, 45 min. Potency, µM (series often up to 92.2 µM), for the others: at the top dose inhibition of complex formation. AID 540263; active = rising FRET ratio curve, often small or poorly fitted; inconclusive = mostly compound fluorescence or quenching in the first reads; inactive = flat curves in all reads;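 further: potency means the concentration at half of the fitted maximal effect; 0% = DMSO wells and 100% = buffer wells lacking importin beta; nearly all actives have a fitted effect of over 15% in size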
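FRET biosensor (snurportin 1 IBB flanked by EYFP and cerulean), 50 nM, with compound 5 min, then 0.125 microM importin beta in PBS, 1 mM DTT, 0.02% Tween-20, 0.1% BSA. CFP/YFP ratio read after 45 min at room temperature; pre-read flags interference.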
miR-21 FLuc = miR-21 reporter, rising signal. HeLa miR-21 FLuc reporter, luciferase, 48 h. Potency, µM (series often up to 38.3 µM), for the others: at the highest dose reporter change, positive = more light. 340,000 tested, under 10 active. AID 2288; active = well fitted rising curve with a large enough effect; inconclusive = small, poorly fitted or top-dose-only effect; inactive = no such curve, though single readings can be large or run the other way;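 further: % of control where 0% means no effect; miR-21 action dims this reporter so a rising signal means less miR-21 action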
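Using DMEM plus 10% FBS, HeLa miR-21-FLuc cells are incubated with test compounds (final up to about 40uM) for 48 hours; firefly luciferase signal is then imaged following reagent-mediated lysis.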
GLA inh pH 4.5 = blocks human alpha-galactosidase A at pH 4.5 | P06280 | purified enzyme, 4-MU-alpha-Gal fluorescence, pH 4.5 | activity change, negative = inhibition, % at 105 µM | 230,000 tested, under 10 active | AID 1467; inconclusive = small, poorly fitted or top-dose-only inhibition, or a rising curve; inactive = flat fitted curve, though single readings scatter; no compound was filed as active;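 further: 0% = full activity with enzyme and -100% = basal without enzyme; dose as in the result columns while the protocol names 77 µM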
Target sequence (P06280 whole entry, looked up): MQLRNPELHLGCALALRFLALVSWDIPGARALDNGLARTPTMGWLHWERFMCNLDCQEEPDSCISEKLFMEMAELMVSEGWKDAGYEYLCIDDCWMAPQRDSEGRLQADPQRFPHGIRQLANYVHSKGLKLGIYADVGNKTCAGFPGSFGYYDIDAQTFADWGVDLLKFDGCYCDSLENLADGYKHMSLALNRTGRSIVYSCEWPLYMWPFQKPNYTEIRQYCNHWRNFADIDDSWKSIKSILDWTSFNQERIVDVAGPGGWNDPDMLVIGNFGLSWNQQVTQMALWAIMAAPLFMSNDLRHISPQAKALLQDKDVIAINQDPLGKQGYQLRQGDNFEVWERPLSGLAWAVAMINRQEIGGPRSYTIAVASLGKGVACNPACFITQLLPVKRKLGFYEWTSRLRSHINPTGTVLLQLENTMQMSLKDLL
An asterisk follows results filed as active; ? = inconclusive; · = no result given; & = joins results of further samples; [ ] = another dose, or the depositor's remark. Not all compounds are listed; rates above refer to the full screens.

The opening 11 records (preview)
1. CCOc1ccc(C2SCC(=O)Nc3c2c(C)nn3C2CCOC(C)(C)C2)cc1 (configuration not stated)
2. CCOP(=O)(OCC)C(NC(=O)Cc1ccccc1)C(Cl)(Cl)Cl (configuration not stated)
3. Cc1ccc(NC(=O)c2ccc3snnc3c2)cc1
4. CC1=NN(c2ccccc2)C(=O)C1/C=C1/C(=O)NC(=O)N(c2cccc(C)c2)C1=O (configuration not stated)
5. Cc1cccc(C)c1OP(N)(=O)OCC(F)(F)F (configuration not stated)
6. Clc1ccc(C(Cn2ccnc2)OCc2csc3c(Cl)cccc23)c(Cl)c1 (configuration not stated)
7. Cc1cc(NC(=O)c2noc3c2CCCCC3)no1
8. CC(Cc1ccccc1)NC(=O)Cc1ccc(N(C)C)cc1 (configuration not stated)
9. COC(=O)C1=Nc2ccccc2/C1=C\c1c(O)n(C)c(=O)n(C)c1=O
10. CC1(C)CN=C(Nc2nc3ccccc3s2)S1

Assay by compound	1	2	3	4	5	6	7	8	9	10
miR-21 FLuc	-3%	1%	-20%	1%	-1%	·	-45%	-11%	5%	-54%
Rango dissoc inh	8%	-7%	-13%	·	-11%	11%	9%	4%	?	-2%
GLA inh pH 4.5	5	1	7	4	-15	·	8	-2	-3	1
Rango-impB inh	5.7%	-1.7%	?	·	-3.3%	-2.0%	2.1%	0.7%	-4.3%	-2.1%

11. Cc1ccc(-c2nn(Cc3ccccc3)cc2C(=O)O)cc1

Assay by compound	11
miR-21 FLuc	-14%
Rango dissoc inh	-17%
GLA inh pH 4.5	2
Rango-impB inh	-4.6%

The list itself, from the first entry:
1. CCOc1ccc(C2SCC(=O)Nc3c2c(C)nn3C2CCOC(C)(C)C2)cc1 (configuration not stated)
2. CCOP(=O)(OCC)C(NC(=O)Cc1ccccc1)C(Cl)(Cl)Cl (configuration not stated)
3. Cc1ccc(NC(=O)c2ccc3snnc3c2)cc1
4. CC1=NN(c2ccccc2)C(=O)C1/C=C1/C(=O)NC(=O)N(c2cccc(C)c2)C1=O (configuration not stated)
5. Cc1cccc(C)c1OP(N)(=O)OCC(F)(F)F (configuration not stated)
6. Clc1ccc(C(Cn2ccnc2)OCc2csc3c(Cl)cccc23)c(Cl)c1 (configuration not stated)
7. Cc1cc(NC(=O)c2noc3c2CCCCC3)no1
8. CC(Cc1ccccc1)NC(=O)Cc1ccc(N(C)C)cc1 (configuration not stated)

Assay by compound	1	2	3	4	5	6	7	8
miR-21 FLuc	-3%	1%	-20%	1%	-1%	·	-45%	-11%
Rango dissoc inh	8%	-7%	-13%	·	-11%	11%	9%	4%
GLA inh pH 4.5	5	1	7	4	-15	·	8	-2
Rango-impB inh	5.7%	-1.7%	?	·	-3.3%	-2.0%	2.1%	0.7%

9. COC(=O)C1=Nc2ccccc2/C1=C\c1c(O)n(C)c(=O)n(C)c1=O
10. CC1(C)CN=C(Nc2nc3ccccc3s2)S1
11. Cc1ccc(-c2nn(Cc3ccccc3)cc2C(=O)O)cc1
12. CC1=NOC2(C)Nc3ncnn3C(c3ccccc3)C12 (configuration not stated)
13. COC(=O)C1=C(c2ccc(F)cc2OCc2ccccc2)C[C@@H]2CC[C@H]1N2C(=O)N1CCC(O)CC1
14. O=C(c1ccc(Cl)cc1)C1CCCN(Cc2ccc3c(c2)OCCO3)C1 (configuration not stated)
15. Cc1ccc(-c2nc3ccc(Cl)cc3n2OC(=O)N(C)C)cc1
16. COc1cc(-n2c(=S)[nH]c3ccccc3c2=O)c(Cl)cc1Cl

Assay by compound	9	10	11	12	13	14	15	16
miR-21 FLuc	5%	-54%	-14%	-1%	·	-5%	-60%	19%
Rango dissoc inh	?	-2%	-17%	-10%	-14%	-5%	-5%	-24%
GLA inh pH 4.5	-3	1	2	2	·	-3	5	2
Rango-impB inh	-4.3%	-2.1%	-4.6%	0.7%	3.8%	0.4%	-2.5%	-1.1%

17. CN1/C(=C\C=Nc2ccccc2)C(C)(C)c2ccccc21
18. COCCCn1c(=O)/c(=C/c2ccccc2OC(F)F)s/c1=C(\C#N)C(=O)NCCOC
19. C[N+]1(C)CCC(OC(=O)C(c2ccccc2)c2ccccc2)CC1
20. C/C(=N\NC(=O)c1ccccc1Cl)c1c(O)n(C2CCCCC2)c(=O)[nH]c1=O
21. Cc1ccc(C2(O)CC(C)N(C)CC2C)cc1 (configuration not stated)
22. COCCCNP1(=O)OCC(C)([N+](=O)[O-])CO1 (configuration not stated)
23. CCOc1ccc(CC2(CCc3ccncc3)C(=O)NC(=O)NC2=O)cc1
24. O=C(CN1CC=C(c2ccccc2)CC1)NC(=O)NCc1ccco1

Assay by compound	17	18	19	20	21	22	23	24
miR-21 FLuc	17%	·	·	-8%	0%	·	1%	0%
Rango dissoc inh	?	-14%	9%	0%	3%	-16%	7%	-25%
GLA inh pH 4.5	1	·	2&-8	·	8	·	-1	-6
Rango-impB inh	?	?	4.0%	-1.1%	0.6%	9.4%	-0.5%	?

25. O=C(O)C(O)(c1ccccc1)C1CCCCC1 (configuration not stated)
26. CC(C(=O)c1ccc2ccccc2c1)N1CCCCC1 (configuration not stated)
27. CCCCn1c(=O)c(C(=O)NC(C)c2ccccc2)c(O)c2ccccc21 (configuration not stated)
28. c1cnc(OCCN2CC2)cn1
29. COc1ccc2c3c1O[C@H]1C(=O)CC[C@H]4[C@@H](C2)N(C)CC[C@]314
30. c1ccc2c3c([nH]c2c1)C1(CCNCC1)NCC3
31. CC(c1ccccc1)(c1ccccc1)c1ccncc1
32. Oc1c(Cl)cc(Cl)cc1CN1CCN(Cc2ccccc2)CC1

Assay by compound	25	26	27	28	29	30	31	32
miR-21 FLuc	3%	-10%	5%	·	·	-19%	10%	-14%
Rango dissoc inh	-14%	10%	1%	?	-6%	-18%	-22%	-1%
GLA inh pH 4.5	·	-1	·	·	-7	-4	-3	17
Rango-impB inh	2.8%	3.9%	1.8%	0.9%	-1.4%	4.0%	-1.7%	-0.3%

33. CC(Cc1ccccc1)NCCC(c1ccccc1)c1ccccc1 (configuration not stated)
34. Cc1ccc(/C=C2\C(=O)NC(=S)N(c3ccc(F)cc3)C2=O)o1
35. O=Cc1c(C(=O)O)n(Cc2ccccc2Cl)c2ccccc12
36. O=C(COc1ccc(Cl)cc1)N1CCN(Cc2ccccc2)CC1
37. O=C1NC(=O)N(Cc2ccccc2)C(=O)C1Cc1ccccc1 (configuration not stated)
38. CCCCn1c(O)c(C(C)=Nc2ccc3c(c2)CCC3)c(=O)[nH]c1=O
39. CCC(=NCCC(c1ccccc1)c1ccccc1)c1c(O)[nH]c(=O)[nH]c1=O
40. COC(=O)Cn1cc(C=C2C(=O)NC(=O)NC2=O)c2ccccc21

Assay by compound	33	34	35	36	37	38	39	40
miR-21 FLuc	·	-1%	-1%	5%	·	0%	-17%	1%
Rango dissoc inh	-20%	?	28%	1%	3%	1%	14%	2%
GLA inh pH 4.5	·	·	-3[21.1 µM]	6	·	1	-3	·
Rango-impB inh	-0.6%	?	-3.9%	-2.3%	5.5%	1.0%	-2.7%	-0.8%

41. c1ccc2c(c1)cc1ccc3cccc4ccc2c1c34
42. CCOC(=O)c1c(C)n(Cc2ccco2)c2c1cc(O)c1ccccc12
43. Cc1nn(Cc2ccccc2)c(Cl)c1C(=O)OC(C)C(=O)Nc1ccc(F)cc1Cl (configuration not stated)
44. COc1ccc(C2=NCC(=O)N(CC(=O)NCc3ccco3)c3sc4c(c32)CCCC4)cc1
45. NC(=Nc1ccccc1)NN=Cc1c[nH]c2ccccc12
46. O=c1[nH]c(=O)n(CCC2=CCCCC2)c(O)c1C=NC1CCN(Cc2ccccc2)CC1
47. COc1cc(CN=Cc2c(O)n(C(C)(C)C)c(=O)[nH]c2=O)cc(OC)c1
48. CCCC(C)n1[nH]c(=O)c2c1NC(=O)CSC2c1ccccc1 (configuration not stated)

Assay by compound	41	42	43	44	45	46	47	48
miR-21 FLuc	·	-11%	-6%	-3%	·	10%	8%	1%
Rango dissoc inh	?	-2%	9%	-12%	16%	-8%	-10%	1%
GLA inh pH 4.5	·	4	8	-4	·	-14	5	-5
Rango-impB inh	?	-0.8%	-0.3%	0.5%	6.6%	-1.2%	0.2%	-0.5%

49. O=C1c2cccc(O)c2C(=O)c2c(O)cc(CO)cc21
50. COc1ccc(C(=O)C(Cc2ccccc2)N(C)C)cc1 (configuration not stated)
51. OC(c1ccc(F)cc1)C(c1ccccc1)N1CCOCC1 (configuration not stated)
52. COc1ccc(CCN)cc1OC
53. CN1CCN(c2ccc([N+](=O)[O-])c(NCc3ccco3)c2)CC1
54. CCOP(=O)(OCC)C(O)c1ccc(OC)cc1 (configuration not stated)
55. COc1cccc(OP(=O)(Nc2ccccc2)Oc2cccc(OC)c2)c1
56. CCCNC(=O)N1[C@H]2CC[C@@H]1C(C(=O)OC)=C(c1cccc(OC)c1OC)C2

Assay by compound	49	50	51	52	53	54	55	56
miR-21 FLuc	·	-13%	-8%	3%	-11%	2%	21%	·
Rango dissoc inh	?	-6%	1%	-5%	2%	7%	0%	1%
GLA inh pH 4.5	·	0	5	4	-8	1	·	·
Rango-impB inh	5.4%	-0.6%	4.3%	0.6%	-2.2%	1.1%	-1.0%	1.2%

57. CC(=O)C1CCC2C3CCC4CC(O)CCC4(C)C3CCC12C (configuration not stated)
58. CC(=NCCCN1CCOCC1)c1c(O)n(Cc2ccccc2)c(=O)[nH]c1=O
59. O=c1[nH]c(=O)n(Cc2ccc(F)cc2)c(O)c1C=NCCN1CCCCC1
60. COCCCNC(=O)c1c(NC(=O)c2ccccc2)n(Cc2ccccc2)c2nc3ccccc3nc12
61. O=C(Nc1ccccc1)c1cc([N+](=O)[O-])ccc1N1CCNCC1
62. CCc1cc(=O)oc2cc(C)cc(OCC(=O)N3CCC(C(=O)O)(c4ccccc4)CC3)c12
63. CC(C)(COC(=O)C(c1ccccc1)c1ccccc1)CN1CCOCC1
64. CN(C)c1ccc(/C=C2\C(=O)NC(=O)N(Cc3ccc(F)cc3)C2=O)cc1

Assay by compound	57	58	59	60	61	62	63	64
miR-21 FLuc	·	1%	2%	·	-8%	3%	·	-3%
Rango dissoc inh	-6%	-9%	7%	?	-7%	-11%	15%	-23%
GLA inh pH 4.5	·	-2	-3	·	-6	·	·	-1
Rango-impB inh	5.9%	0.8%	-2.1%	?	-4.4%	0.0%	4.7%	?

65. O=c1[nH]c(=O)n(Cc2ccccc2)c(O)c1/C=N/Nc1c(F)c(F)c(F)c(F)c1F
66. CCC12CN3CCN(CC(C3)C1O)C2 (configuration not stated)
67. COC(=O)C(c1ccccc1)N1CCCCCC1 (configuration not stated)
68. CCOC(=O)C1CCN(/C=C2/C(=O)NC(=S)N(c3cccc(OC)c3)C2=O)CC1
69. COc1ccc(-n2cnc3cc(C(=O)N4CCC5(CC4)OCCO5)ccc32)cc1
70. O=C1NC(=O)N(c2ccccc2)C(=O)/C1=C/C=C/c1ccco1
71. COc1ccc(CCNC2CCCCC2)cc1OC
72. COc1ccccc1C=C1C(=O)NC(=S)NC1=O
73. COC(=O)C1=C(c2cc3ccccc3o2)C[C@@H]2CC[C@H]1N2C(=O)NCCCOC(C)C
74. NCC(O)c1cc(O)c(O)cc1F (configuration not stated)

Assay by compound	65	66	67	68	69	70	71	72	73	74
miR-21 FLuc	-1%	-6%	2%	-1%	21%	20%	1%	·	·	·
Rango dissoc inh	38%	-6%	-16%	-1%	8%	-26%	1%	-4%	-16%	-18%
GLA inh pH 4.5	-5	-12	7	5	-9	1	1	·	·	-3
Rango-impB inh	-2.8%	-3.2%	0.1%	-2.0%	0.6%	?	1.5%	6.8%	-1.0%	3.5%
